CtBP-E1A blk: CtBP/E1A binding inhibition; AID 651724; hit rate 0.49% among 340,000; activity change, % (concentration not given with the values); AlphaScreen GST-E1A/His-CtBP binding, 1536-well; active compounds read low; control for the full effect not named in the record; in the data active means activity change below about -65%; inconclusive means about -30% to -65%; inactive means above about -30%; further: on the % scale 0 is the no-effect control and ±100 the full control effect
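Protein mix (5X: 125 nM each GST-E1A, His-CtBP) was incubated with pinned compound 2 h at 37 deg C in dark, in 50 mM Tris pH 8.0 buffer with 300 mM NaCl. Glutathione donor and nickel acceptor beads followed; AlphaScreen signal read after 1 h.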
TRPML1 inh: inhibitors of human TRPML1 channel. TRPML1-inducible cells, Ca2+ dye fluorescence, FDSS; active compounds read low; inhibition of EC80 agonist-evoked calcium signal. activity change, negative = inhibition, % (concentration not given with the values). hit rate 0.02% among 390,000; in the data active means activity change below about -50%; inconclusive means about -30% to -50%; inactive means above about -30%;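 further: stimulus is agonist 54-4 at its EC80 concentration; on the % scale 0 is the no-effect control and ±100 the full control effect; the text of the record puts the active cut at -80%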
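Calcium fluorescence in TRPML1-DL cells induced overnight with Tet: a 110 s read after compound pin addition, then a 110 s antagonist read after challenge with 54-4 at 4 uM final (EC80).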
TRPV1 potentiator: human TRPV1 potentiation; TRPV1-expressing cells, Fluo-8 calcium influx, capsaicin EC20 potentiation; host cell line not named in the record; control for the full effect not named in the record; potentiation, % at 8.33 µM; hit rate 0.02% among 320,000; AID 540277; active means potentiation above 80%; inconclusive means 30% to 80%; inactive means below 30%; further: 0% is about no effect
Target sequence (Q8NER1 whole entry, looked up): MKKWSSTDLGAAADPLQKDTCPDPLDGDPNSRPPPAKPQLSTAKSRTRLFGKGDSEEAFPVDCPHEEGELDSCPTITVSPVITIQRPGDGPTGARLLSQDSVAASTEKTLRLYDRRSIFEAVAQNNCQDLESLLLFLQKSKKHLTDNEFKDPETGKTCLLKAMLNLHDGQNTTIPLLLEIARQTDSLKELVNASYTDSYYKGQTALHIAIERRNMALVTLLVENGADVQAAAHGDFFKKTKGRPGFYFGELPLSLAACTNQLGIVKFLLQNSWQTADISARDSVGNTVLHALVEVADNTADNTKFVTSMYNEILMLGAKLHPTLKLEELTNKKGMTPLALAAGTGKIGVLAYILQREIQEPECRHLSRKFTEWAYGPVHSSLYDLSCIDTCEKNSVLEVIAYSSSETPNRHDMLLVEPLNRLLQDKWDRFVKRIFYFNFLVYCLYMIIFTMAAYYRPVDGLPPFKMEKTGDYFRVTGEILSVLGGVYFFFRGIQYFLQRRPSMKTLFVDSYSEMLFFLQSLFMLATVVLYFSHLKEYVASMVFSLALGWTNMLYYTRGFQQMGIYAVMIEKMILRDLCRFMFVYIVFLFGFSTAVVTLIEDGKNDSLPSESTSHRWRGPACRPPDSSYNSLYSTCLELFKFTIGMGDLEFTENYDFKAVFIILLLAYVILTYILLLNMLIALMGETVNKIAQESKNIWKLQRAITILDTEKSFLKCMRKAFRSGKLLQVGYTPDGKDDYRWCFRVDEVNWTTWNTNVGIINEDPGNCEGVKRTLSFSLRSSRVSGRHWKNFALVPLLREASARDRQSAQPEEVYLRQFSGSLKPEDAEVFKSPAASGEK
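TRPV1-expressing cells were cultured overnight at 35.5C and loaded with Fluo-8 calcium dye for 40 to 90 min at room temperature. After a 10 s baseline, compound was added and calcium influx was read kinetically for 3 min (ex 480/em 520 nm).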
TRPML1 agonist: agonists of human TRPML1 channel; TRPML1-expressing cells, Ca2+ dye fluorescence, FDSS; host cell line not named in the record; reference of the full effect not given here; hit rate 0.12% among 410,000; activation, % (concentration not given with the values); in the data active = activation above about 50%; inconclusive = about 30% to 50%; inactive = below about 30%; further: 0% is about no effect; the text of the record puts the active cut at 80%
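In this qHTS format, compounds were pin-transferred onto Ca8-dye-loaded TRPML1-DL cells induced with Tet overnight, and intracellular Ca2+ fluorescence was recorded kinetically for 110 s after a 10 s baseline. A subsequent 4uM final 54-4 (EC80) addition followed by a second 110 s read served as the antagonist phase.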
Six1-Eya2 blk: inhibitors of human Six1/Eya2 interaction; Q15475+O00167; AlphaScreen GST-Six1/His-Eya2 binding, biochemical; active compounds read low; control for the full effect not named in the record; activity change, % (concentration not given with the values); hit rate 0.56% among 360,000; in the data active = activity change below about -65%; inconclusive = about -30% to -65%; inactive = above about -30%; further: on the % scale 0 is the no-effect control and ±100 the full control effect
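Six1/Eya2 binding was read as AlphaScreen signal after compounds were pinned into GST-Six1 plus His-tagged Eya2 (5X stock 250/500 nM) in pH 8.0 Tris/NaCl/TCEP buffer, beads added, then incubated 1 h, 37 C, dark.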
D2 PAM: potentiates the human D2 dopamine receptor allosterically; P14416; DiscoveRx D2 beta-arrestin cells, luminescence, 90 min; 100% = 57 uM dopamine signal; potentiation, % (test concentration not listed); hit rate 0.23% among 360,000; active = potentiation of 50% or more; inconclusive = 30% to 50%; inactive = 30% or less;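 further: compound concentration not given in the record; tested on top of an EC20 dose of dopamine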
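D2 cells co-treated with compound plus 50 nM dopamine (EC20) for 90 min at 37 deg C to detect potentiation. Beta-arrestin recruitment was read as enzyme-fragment luminescence after 1 h at ambient temperature. Full response was set by 57 uM dopamine.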
Starred values were filed as active, the others as inactive; ? = inconclusive; . = not tested or not shown.

Start of the data: the first 21 compounds, to show the layout:
SMILES	CtBP-E1A blk	TRPML1 inh	TRPV1 potentiator	TRPML1 agonist	Six1-Eya2 blk	D2 PAM
COc1ccc(C2=NCCNC(C(F)(F)F)=C2)cc1	-2	-3	-5	-0.5	5	-11
Cc1cc2nc(C)n(CCCNC(=O)Nc3cccc4ccccc34)c2cc1C	-1	0	-1	-0.2	1	-11
COc1ccc(NC(=O)CCN2CCCC2)c(OC)c1	-9	2	-13	0.4	-3	0
CC(C)(C)NC(=O)COC(=O)CCC(=O)c1ccc(Cl)cc1	14	-7	-26	0.1	10	-5
Nc1nonc1-n1nnc(C(=O)N/N=C/c2ccccc2Cl)c1CN1CCOCC1	.	18	1	0.2	3	-9
COc1cccc(C(C)NC(=O)Nc2cccc(C(F)(F)F)c2)c1 (centres undefined)	6	-13	8	0.6	13	-33
Cc1ccc(S(=O)(=O)N2CCC(C(=O)N[C@H](C(=O)NCc3ccco3)C(C)C)CC2)cc1	9	9	1	0.9	3	-5
N/C(Cc1ccc(Cl)cc1Cl)=N\OC(=O)Cc1ccccc1	73	-13	-2	5.2	75	5
Cc1cc(NC(=O)CSc2nnc(C(C)N(C)C)n2-c2ccc(F)cc2)no1 (centres undefined)	-15	-12	1	0.0	3	1
C[C@H](CO)N1C[C@H](C)[C@@H](CN(C)Cc2ccc(C(=O)O)cc2)Oc2ncc(-c3ccc(C(=O)N(C)C)cc3)cc2C1=O	1	2	.	-0.6	-7	-1
COC(=O)NNC(=O)c1ccc(C)cc1	5	10	-15	-0.1	-2	-4
COc1ccc(CNC(=O)CCCC(=O)Nc2cccc(Br)c2)cc1	1	23	6	0.2	-13	-4
CCN(CC(=O)Nc1c(F)cccc1F)C(=O)/C=C/c1c(C)nn(-c2ccc(F)cc2)c1C	4	-19	-3	-0.9	5	-6
Cc1cc(F)ccc1-c1cc(C(=O)NC2CCCCC2)[nH]n1	2	.	.	-0.3	-2	-16
Cc1nn(-c2ccc(N3CCOCC3)nn2)c(C)c1CCC(=O)Nc1ccccc1	2	9	-1	-0.3	0	-1
Cc1cccc(Nc2nc(N)nc(CN3CCN(c4ccccc4F)CC3)n2)c1	?	8	.	1.7	?	3
COc1cc(NC(=O)CN(C)Cc2cccc(F)c2)c(C)cc1[N+](=O)[O-]	4	-1	3	-0.6	-8	-18
COC(=O)N/N=C(\C)c1ccc(Br)cc1	3	57	4	0.3	5	-5
COc1cccc(CN2CCNC(=O)C2CC(=O)NC2CCOCC2)c1OC (centres undefined)	.	0	?	0.7	7	-10
c1ccc(-c2nccc3ccccc23)cc1	16	33	.	-0.6	7	-4
CC1CCN(C(=O)N[C@@H](Cc2ccccc2)C(=O)O)CC1	0	-28	12	-1.4	9	-12

The whole of this part, previewed entries included:
SMILES	CtBP-E1A blk	TRPML1 inh	TRPV1 potentiator	TRPML1 agonist	Six1-Eya2 blk	D2 PAM
COc1ccc(C2=NCCNC(C(F)(F)F)=C2)cc1	-2	-3	-5	-0.5	5	-11
Cc1cc2nc(C)n(CCCNC(=O)Nc3cccc4ccccc34)c2cc1C	-1	0	-1	-0.2	1	-11
COc1ccc(NC(=O)CCN2CCCC2)c(OC)c1	-9	2	-13	0.4	-3	0
CC(C)(C)NC(=O)COC(=O)CCC(=O)c1ccc(Cl)cc1	14	-7	-26	0.1	10	-5
Nc1nonc1-n1nnc(C(=O)N/N=C/c2ccccc2Cl)c1CN1CCOCC1	.	18	1	0.2	3	-9
COc1cccc(C(C)NC(=O)Nc2cccc(C(F)(F)F)c2)c1 (centres undefined)	6	-13	8	0.6	13	-33
Cc1ccc(S(=O)(=O)N2CCC(C(=O)N[C@H](C(=O)NCc3ccco3)C(C)C)CC2)cc1	9	9	1	0.9	3	-5
N/C(Cc1ccc(Cl)cc1Cl)=N\OC(=O)Cc1ccccc1	73	-13	-2	5.2	75	5
Cc1cc(NC(=O)CSc2nnc(C(C)N(C)C)n2-c2ccc(F)cc2)no1 (centres undefined)	-15	-12	1	0.0	3	1
C[C@H](CO)N1C[C@H](C)[C@@H](CN(C)Cc2ccc(C(=O)O)cc2)Oc2ncc(-c3ccc(C(=O)N(C)C)cc3)cc2C1=O	1	2	.	-0.6	-7	-1
COC(=O)NNC(=O)c1ccc(C)cc1	5	10	-15	-0.1	-2	-4
COc1ccc(CNC(=O)CCCC(=O)Nc2cccc(Br)c2)cc1	1	23	6	0.2	-13	-4
CCN(CC(=O)Nc1c(F)cccc1F)C(=O)/C=C/c1c(C)nn(-c2ccc(F)cc2)c1C	4	-19	-3	-0.9	5	-6
Cc1cc(F)ccc1-c1cc(C(=O)NC2CCCCC2)[nH]n1	2	.	.	-0.3	-2	-16
Cc1nn(-c2ccc(N3CCOCC3)nn2)c(C)c1CCC(=O)Nc1ccccc1	2	9	-1	-0.3	0	-1
Cc1cccc(Nc2nc(N)nc(CN3CCN(c4ccccc4F)CC3)n2)c1	?	8	.	1.7	?	3
COc1cc(NC(=O)CN(C)Cc2cccc(F)c2)c(C)cc1[N+](=O)[O-]	4	-1	3	-0.6	-8	-18
COC(=O)N/N=C(\C)c1ccc(Br)cc1	3	57	4	0.3	5	-5
COc1cccc(CN2CCNC(=O)C2CC(=O)NC2CCOCC2)c1OC (centres undefined)	.	0	?	0.7	7	-10
c1ccc(-c2nccc3ccccc23)cc1	16	33	.	-0.6	7	-4
CC1CCN(C(=O)N[C@@H](Cc2ccccc2)C(=O)O)CC1	0	-28	12	-1.4	9	-12
O=C(CN1CCN(c2ccccn2)CC1)Nc1ccccc1Br	.	-7	3	0.3	0	10
CC1CCCC(NC(=O)c2cccc(N3CCCC3=O)c2)C1C (centres undefined)	.	-9	-14	0.1	6	-7
COc1ccc(N2Cc3ccc(OC)c(OC)c3C2=O)cc1	-25	.	11	.	0	-10
Cc1ccc(NC(=S)Nc2c(C)n(C)n(-c3ccccc3)c2=O)cc1Cl	1	7	-1	-0.6	4	-10

Later entries
SMILES	CtBP-E1A blk	TRPML1 inh	TRPV1 potentiator	TRPML1 agonist	Six1-Eya2 blk	D2 PAM
COC(=O)N/N=C/c1cc(Cl)cc(Cl)c1OCc1ccccc1	-11	9	-17	2.8	7	-24
O=C(CSc1nc2c(sc3ccccc32)c(=O)n1CCCN1CCCC1)NCC1CCCO1 (centres undefined)	-2	-3	8	-0.5	-2	-36
Cc1cccnc1NC(=S)NC(=O)c1oc2ccccc2c1C	2	4	-2	-0.6	2	-2
Cc1c(Cc2ccccc2)c(=O)oc2cc(OCC(=O)N[C@@H](Cc3ccccc3)C(=O)O)ccc12	2	.	16	.	0	-22
CC(C)Nc1nc(Cl)nc(N(C#N)CN2C(=O)c3ccccc3C2=O)n1	0	-2	2	-0.3	-15	-6
O=C(N/N=C/c1cccc([N+](=O)[O-])c1)C1CC(=O)N(c2ccc(Cl)cc2)C1 (centres undefined)	-12	16	-16	1.5	-11	1
Nc1ccccc1-c1nnc(-c2ccc(-c3ccccc3)cc2)o1	22	-16	3	1.6	15	-11
Cc1ccc(C2c3[nH]c4ccccc4c3C[C@H]3C(=O)N(c4ccccc4C(=O)NCCCN4CCOCC4)C(=O)N23)cc1 (some centres undefined)	-10	.	9	.	-7	-44
Clc1cccc(CNc2ccn3nc(-c4ccc(OCc5ccccc5)cc4)cc3n2)c1	0	.	.	0.4	-12	-5
O=C1CCN(S(=O)(=O)c2ccc(Cl)cc2)N1	6	4	2	-0.3	3	-3
O=C(OCc1c(Cl)cccc1Cl)c1cnccn1	6	-10	24	-1.0	3	?
COc1cccc(-c2nc(N3CCCCC3)c3ccccc3n2)c1O	-5	4	.	1.4	-11	0
CCN(CC)CCN(C(=O)C1=COCCO1)c1nc2cc3c(cc2s1)OCO3	0	-8	-3	-0.8	-1	-19
Cc1ccc(S(=O)(=O)Nc2cccc(N(C)S(C)(=O)=O)c2)cc1[N+](=O)[O-]	8	8	-6	-0.2	-6	-3
CC(C)(C)c1ccc(C(=O)N/C(=C\c2ccco2)C(=O)Nc2ccccc2C(=O)O)cc1	22	-7	?	0.6	1	2
CC(C)n1ncc2c(C(=O)O)cc(C3CC3)nc21	2	-2	?	0.2	0	3
O=C(CCN1CCOCC1)NNC(=O)Nc1cccc(Cl)c1	1	6	1	0.7	2	5
NC(=O)C1=C[C@@H](c2csc3ccccc23)C[C@@H](OCc2ccc(CO)cc2)O1	.	29	-10	-0.1	4	-11
Cc1ccc(S(=O)(=O)N2CCN(C(=O)CCC(=O)Nc3ccc(Br)c(C)c3)CC2)cc1	5	-20	.	0.6	1	-4
Fc1ccccc1-c1nc2ncccc2o1	10	18	-2	0.0	-8	1
CCCCS(=O)(=O)N1CCCC(C(=O)Nc2ccc3c(c2)CCC3)C1 (centres undefined)	-5	9	1	-1.0	0	-7
COC(=O)N/N=C(\C)c1cccc(C(F)(F)F)c1	9	-1	3	-0.4	4	-6
COc1ccc(CNC(=O)C2CCN(C(=O)c3ccco3)CC2)cc1	2	-11	0	0.3	3	-3
COc1ccc(C(=O)Cn2nnc(-c3ccccc3F)n2)cc1	7	10	-11	2.0	6	-6
COc1ccc(O)c(CN2CCC(n3nccc3NC(=O)c3ccccc3Cl)CC2)c1	-1	-4	9	0.1	-12	-14

Carrying on.
SMILES	CtBP-E1A blk	TRPML1 inh	TRPV1 potentiator	TRPML1 agonist	Six1-Eya2 blk	D2 PAM
CC(NCc1ccccc1O)c1ccccc1 (centres undefined)	9	23	-39	2.1	1	-9
O=C(CCN1CCCCC1)N/N=C/c1c[nH]c2ccccc12	9	-2	24	-0.6	7	-19
Cn1c(CNC(=O)c2ccc3c(c2)OCO3)nnc1SCC(=O)Nc1ccccc1F	1	-2	3	-0.6	13	-7
N#CCC(=O)Nc1ccc(C(=O)N2CCN(S(=O)(=O)c3ccc4ccccc4c3)CC2)cc1	0	7	-2	-0.2	-4	-7
CCOC(=O)Cn1nc(NC(=O)c2cc(OC)cc(OC)c2)cc1C	-8	-6	6	0.1	6	-13
COc1ccc(S(=O)(=O)N2CCCC(C(=O)NC3CCCCC3)C2)cc1 (centres undefined)	5	29	9	-0.5	4	-13
CC1(C(=O)NC2CCCC2)CCN1C(=O)Cc1ccc(-c2ccccc2)cc1 (centres undefined)	3	.	.	0.2	-5	1
CCC(=O)Nc1cccc(NC(=S)NC(=O)c2ccccc2Cl)c1	8	8	-7	-0.3	0	-9
N#C/C(=C\c1ccccc1C(F)(F)F)C(=O)Nc1ccccc1	10	93	7	-0.4	-1	7
Cc1ccc(C)c(N2N=C(C(=O)Nc3cccc(S(=O)(=O)N4CCCCC4)c3)CCC2=O)c1	-5	-13	9	0.7	4	-9
COc1ccc(CCNC(=O)CCNC(=O)c2ccco2)cc1OC	-1	-8	-4	0.3	0	-8
CC(=O)NC(CCS(C)(=O)=O)C(=O)Nc1cc(C)ccc1C (centres undefined)	-4	-6	-1	0.3	5	-6
NC(=O)SCC(=O)Nc1cccc(Cl)c1	5	6	-3	5.6	-3	-15
CC1(C(=O)NS(=O)(=O)c2ccccc2Cl)CCN1C(=O)CCc1ccc(Cl)cc1Cl (centres undefined)	-3	.	.	-0.5	10	-1

Screening results (PubChem)
